# Compound activity from PubChem.
# ClpP mod: qHTS Assay for Activators of ClpP; ATP-dependent Clp protease proteolytic subunit (Bacillus subtilis (strain 168)), P80244; purified B. subtilis ClpP, FRET peptide cleavage, 20 min; Potency, µM (doses to about 57.5 µM), inactives show at the top dose activity change, negative = active; 340,000 tested, 1.9% active; AID 651965, 2013; active = well fitted falling curve with a large enough effect; inconclusive = small, poorly fitted or top-dose-only effect; inactive = no such curve, though single readings can be large or run the other way; note: potency is the fitted concentration of half-maximal effect; the source files actives as falling curves though it sought activators and does not explain the sign; nearly all actives have a fitted effect of over 65% in size; many hits overshoot -100%
# Target sequence (P80244 whole entry, looked up): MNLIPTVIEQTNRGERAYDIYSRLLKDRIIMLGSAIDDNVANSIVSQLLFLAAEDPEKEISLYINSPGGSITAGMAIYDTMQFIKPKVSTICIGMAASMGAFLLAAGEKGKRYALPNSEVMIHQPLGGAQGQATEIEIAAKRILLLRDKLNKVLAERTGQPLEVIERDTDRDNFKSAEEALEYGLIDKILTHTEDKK
#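 Buffer: 100 mM Tris/HCl pH8, 100 mM KCl, 0.05% low protease BSA, 2.5% glycerol, 0.01% Tween-20. ClpP 10 microg/mL final; 20 min RT; delta FRET normalized to ADEP and DMSO controls.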
# Menin-MLL FL inh: inhibitors of human menin-MLL interaction, wild-type MLL peptide; Fluorescence polarization, fluorescein-MLL peptide displacement from menin; FP activity change, % at 61.4 µM; 290,000 tested, under 10 active; AID 1766; inconclusive = falling polarisation curve, or a change in total fluorescence; inactive = total fluorescence flat and polarisation flat or rising; no compound was filed as active; the % refers to the polarisation; negative = inhibition;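 note: % of control where 0% means no effect; inhibitors lower the polarisation; unlabelled MLL peptide was the positive control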
# Sfp inh: inhibitors of Bacillus subtilis Sfp phosphopantetheinyl transferase; Q9F4F7; 310,000 tested, 3.5% active; Potency, µM, for the others: max response, negative = inhibition, hits mostly inhibitors; Biochemical Sfp PPTase activity, qHTS; AID 1490; active = well fitted inhibition curve with a large enough effect; inconclusive = small, poorly fitted or top-dose-only effect, or another doubt; inactive = no such curve, though single readings can be large or run the other way;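 note: the enzyme is Sfp with the accession as filed and its product quenches rhodamine fluorescence; potency is the fitted concentration of half-maximal effect; 0% = enzyme reaction without inhibitor and -100% = no enzyme wells; top concentration of the series not given in the record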
#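 After 15 min at room temperature with compound, 15 nM Sfp received 5 uM rhodamine-CoA plus 12.5 uM BHQ-2-ybbR (50 mM Hepes pH 7.6, 10 mM MgCl2). Rate came from the fluorescence difference over 30 min, ex 525/em 598 nm.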
# gsp antag: gsp mutant antagonism | gsp-mutant cells, cAMP HTRF, 30 min; control for the full effect not named in the record | 340,000 tested, 0.4% active | Potency, µM (series often up to 76.9 µM), without a hit: at the highest dose activity change, negative = inhibition, actives largely listed as inhibitors; active = falling curve of any shape with a large fitted effect; inconclusive = falling curve, mostly with a smaller effect; inactive = flat or rising curve; cell line not stated here;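 note: intracellular cAMP measured with PDE inhibitor Ro 20-1724 present during compound exposure; potency is the fitted concentration of half-maximal effect; % is set by controls: 0 for no effect and ±100 for the full control effect; nearly all actives have a fitted effect of over 65% in size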
#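 Cells, 2000/well, grown 16–24 h in DMEM 10% FBS with 0.5 mg/ml G418, then compounds plus […] (300 uM addition stock), 30 min at 37C. cAMP read by HTRF (cAMP-d2 and anti-cAMP antibody-K in lysis buffer) after 30 min RT.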
# gsp agonist: agonists of gsp mutant (McCune-Albright syndrome) | Potency, µM (titrated, usually from 76.9 µM), inactives show at the highest dose activation (cAMP increase), most hits filed as activators | gsp mutant cells, cAMP HTRF, 30 min; control for the full effect not named in the record | 340,000 tested, 0.13% active; active = well fitted activation curve with a large enough effect; inconclusive = small, poorly fitted or top-dose-only effect, or another doubt; inactive = no such curve, though single readings can be large or run the other way; cell line not stated here;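 note: phosphodiesterase inhibitor Ro 20-1724 added with compounds to block cAMP breakdown; potency is the fitted concentration of half-maximal effect; nearly all actives have a fitted effect of over 60% in size; about a fifth of the inactives were tested at one dose only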
#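 Cells stably selected in G418 were plated at 2000/well, grown 16-24 hr, then given compounds in DMSO with the PDE inhibitor […] (300 uM solution added) for 30 min at 37C; cAMP was read by HTRF.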
# D2 agonist: agonists of human D2 dopamine receptor (beta-arrestin) | P14416 | DiscoveRx PathHunter D2 beta-arrestin, luminescence, 90 min; 100% = 57 uM dopamine signal | activation, % (concentration not given with the values) | 360,000 tested, 0.084% active | AID 624465; in the data active = activation above about 40%; inconclusive = about 15% to 40%; inactive = below about 15%; note: compound concentration not given in the record; the text of the record calls up to 30% inactive
# Target sequence (P14416 whole entry, looked up): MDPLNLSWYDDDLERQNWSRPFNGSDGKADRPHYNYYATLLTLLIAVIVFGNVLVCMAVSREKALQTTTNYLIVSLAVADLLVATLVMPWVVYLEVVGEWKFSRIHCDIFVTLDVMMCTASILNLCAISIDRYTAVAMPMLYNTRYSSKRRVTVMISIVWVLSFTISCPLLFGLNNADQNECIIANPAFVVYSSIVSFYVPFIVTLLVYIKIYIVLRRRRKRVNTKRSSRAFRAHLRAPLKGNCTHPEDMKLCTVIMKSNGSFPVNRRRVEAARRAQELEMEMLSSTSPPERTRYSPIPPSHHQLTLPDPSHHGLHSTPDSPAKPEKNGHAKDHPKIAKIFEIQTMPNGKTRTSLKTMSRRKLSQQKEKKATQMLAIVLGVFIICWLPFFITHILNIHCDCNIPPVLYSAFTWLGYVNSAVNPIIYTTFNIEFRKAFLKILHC
#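 Agonist mode: compounds alone added to overnight-plated D2 PathHunter cells for 90 min at 37 C, with 57 uM final dopamine (EC100) defining full response. Beta-arrestin recruitment detected by chemiluminescent reagent, read after 1 h at ambient temperature.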
# PINK1 expr mod: changes PINK1 expression; PINK1 immunofluorescence, high-content cytometry, 24 h; 410,000 tested, 0.2% active; Potency, µM (series often up to 76.6 µM), for inactives: at the highest dose activation (PINK1 increase), most hits filed as activators; active = well fitted activation curve with a large enough effect; inconclusive = small, poorly fitted or top-dose-only effect; inactive = flat fitted curve, though single readings scatter; cell line not stated here;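 note: potency is the fitted concentration of half-maximal effect; % of control where 0% means no effect; nearly all actives have a fitted effect of over 65% in size; a mitochondrial uncoupler was the plate control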
#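 Decision-based qHTS: stable cells, 24 h exposure to five compound concentrations, CCCP as control. Fixed cells stained for PINK1 plus nuclear, mitochondrial and cell markers, cytometer read.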
# Numbers without * were called inactive; u = inconclusive; x = no result given; [ ] = another dose, or the depositor's remark.
smiles	ClpP mod	Menin-MLL FL inh	Sfp inh	gsp antag	gsp agonist	D2 agonist	PINK1 expr mod
c1ccc2c(c1)-c1nc3ccccc3cc1C2N1CCOCC1 (stereo unspecified)	-1.1%	x	x	-7%	-3%[15.4 µM]	3.9	-1.3%
CN1c2ccccc2SC2C(c3ccccc3)=NOC21 (stereo unspecified)	-23%	x	x	x	x	-5.3	0.8%
CCCS(=O)(=O)N1CCC(C(=O)NCC2CCCO2)CC1 (stereo unspecified)	0.2%	-4.4	10%	14%	u	0.3	5.2%
COc1cc(C(=O)NCC(C)C)c([N+](=O)[O-])cc1OC	0.9%	-0.2	-6%	9%	-10%	-2.4	3.7%[38.3 µM]
c1ccc(C2C3=C(CCCC3)Nc3ncnn32)cc1 (stereo unspecified)	-7.7%	-0.6	-4%	-1%	4%	1.1	-3.7%[38.3 µM]
O=C(CSc1nncn1-c1cccnc1)N1CCOCC1	x	-2.5	13%	10%	-8%[15.4 µM]	-0.3	1.4%
COc1cccc(CNS(=O)(=O)c2cc(-c3cc(C)no3)ccc2C(C)C)c1	-5.1%	1.5	4%	-12%	-33%[inhibitor]	5.0	1.0%
O=C1CCC(c2ccccc2)N1C(=O)c1cccnc1 (stereo unspecified)	-0.4%	-2.1	-2%	10%	13%	-0.4	1.1%[38.3 µM]
Cc1noc(C)c1NC(=O)Nc1ccc2c(c1)C(=O)N([C@H](C)CO)C[C@H](C)[C@@H](CN(C)C(=O)NC1CCCCC1)O2	-5.9%	x	x	-5%	-27%	-3.9	0.7%
Clc1ccc(-c2nnc3cccc(Cl)n23)c(Cl)c1	0.1%	-2.8	10%	2%	u	-2.2	-3.9%
CC1(C(=O)NS(=O)(=O)C2CC2)CCN(C(=O)c2ccc3ccccc3n2)C1 (stereo unspecified)	-1.9%	x	x	x	x	-4.5	-0.1%
O=C(c1cc(Br)ccc1O)N1CCN(S(=O)(=O)Cc2ccccc2)CC1	-1.3%	x	x	-7%	-23%	-4.0	-1.1%
O=C(COC(=O)c1ccc(S(=O)(=O)NCc2ccco2)cc1)NCC1CCCCC1	0.3%	4.7	8%	-17%	-11%	-3.8	2.4%[38.3 µM]
COc1ccc(NC(=O)c2c(Cl)cnn2C)c(C)c1	-0.2%	-10.0	6%	-9%	4%	-1.9	1.9%
O=C(COc1cccc2cccnc12)N/N=C1\SCC(=O)N1CCc1ccccc1	-0.8%	0.4	-16%	-8%	-3%[15.4 µM]	-0.5	1.9%
N#Cc1ccc(C(CC(=O)O)N2Cc3ccccc3C2=O)cc1 (stereo unspecified)	-0.1%	2.1	12%	16%	34%	-6.7	0.6%
Cc1no[n+]([O-])c1COc1ccc(/C=C2\NC(=S)NC2=O)cc1	-8.4%	11	0%	-2%	-8%	-3.4	-0.2%
CN1CCN(c2nc(-c3ccc(Cl)cc3)cc(=O)[nH]2)CC1	x	-5.2	13%	-1%	-1%	-3.4	-1.2%
COc1cc(C(=O)NCCC(=O)NCc2c(F)cc(F)cc2F)cc(OC)c1OC	0.1%	x	7%	11%	u	0.5	-1.6%
CN(C)c1nc(SCCOC(=O)COc2ccc(Cl)cc2Cl)nc(N(C)C)n1	0.5%	2.3	15%	-14%	u	-0.6	-3.0%[38.3 µM]
COc1ccc(N(CC(=O)N2CCN(c3ccccc3F)CC2)S(=O)(=O)c2ccc(C)cc2)cc1	-2.2%	-2.3	6%	-6%	-16%	-0.5	1.4%
CCCCNC(=O)C1(C)CCCCN1Cc1ccccc1-c1ccccc1 (stereo unspecified)	0.1%	x	x	x	x	-2.2	u
O=C(O)c1ccc(NC2=C(n3nnc4ccccc43)C(=O)c3ccccc3C2=O)cc1	x	4.8	7%	1%	u	10.0	2.4%
CCN(Cc1ccccc1)CC(O)COc1ccccc1 (stereo unspecified)	1.2%	1.7	4%	3%	-16%	-15	-0.3%
Cc1cc(C)cc(NC(=O)COC(=O)c2cc(C)oc2C)c1	2.4%	-0.5	16%	-16%	0%	1.9	4.6%
Cc1ccc(NC(=O)Cn2nc(C(=O)O)c3ccccc3c2=O)cc1S(=O)(=O)N1CCCCCC1	-0.6%	x	x	u	5%	-0.4	1.9%
CC1=CC(=C(C#N)c2nc3ccccc3s2)C=C(C)N1c1ccc(F)cc1	1.6%	u	7%	21%	15%	0.1	-0.6%
COc1ccc(CC(=O)NC2CCS(=O)(=O)C2)cc1 (stereo unspecified)	x	x	x	9%	7%[15.4 µM]	-3.4	-0.1%
CCCc1[nH]n(-c2ccc([N+](=O)[O-])cc2)c(=O)c1C=NCCCn1ccnc1	x	-6.8	-27%	-18%	-70%[15.4 µM]	-21	-1.4%
COc1ccc(NC(=O)CNC(=O)c2nn(-c3ccc(OC)c(Cl)c3)c(=O)c3ccccc23)c(OC)c1	x	x	-32%	-9%	21%[15.4 µM]	4.5	0.1%
COc1ccc2c3c(c(=O)oc2c1OCC(N)=O)CCCC3	28µM*	3.2	20%	-5%	10%	0.2	-0.9%
COc1ccc(Nc2nc(-c3ccccc3O)nc3ccccc23)cc1	-10%	-3.1	9%	-18%	-12%[15.4 µM]	2.6	24%
CC1CCCC(C)N1C(=O)COC(=O)c1cc(S(=O)(=O)N2CCOCC2)ccc1Cl (stereo unspecified)	-2.7%	x	x	-1%	-6%[15.4 µM]	-0.5	-0.8%
CCc1nc(SCC(=O)N2CCCC2)c2c(=O)n(C)c(=O)n(C)c2n1	-0.9%	x	-11%	-4%	1%	-5.9	1.8%
O=C(c1cccs1)N1CCC(c2nc3c(nnn3Cc3cccc(Cl)c3)c(=O)[nH]2)CC1	1.5%	0.9	-7%	-13%	11%[15.4 µM]	0.6	1.5%
COc1ccc(CCN=C(N)NS(=O)(=O)c2cccs2)cc1OC	x	-0.2	13%	-5%	0%[15.4 µM]	-1.6	4.0%
O=C(Nc1cccnc1)c1ccc(Cl)c(S(=O)(=O)N2CCCCC2)c1	0.3%	u	12%	-23%	23%	1.7	-0.4%
CC1(C)SC(=S)N(/N=C/c2ccc(O)cc2)C1N(O)C(=O)Nc1ccc([N+](=O)[O-])cc1 (stereo unspecified)	-1.6%	6.0	13%	-5%	0%	-5.8	8.5%
CCn1cc(C(=O)NCc2ccco2)c(=O)c2cc(S(=O)(=O)N3CCCC3)ccc21	x	-5.5	-5%	u	-2%	4.8	0.4%
Cn1cc(S(=O)(=O)N2CCC(Cc3ccccc3)CC2)c(=O)n(C)c1=O	0.4%	0.3	12%	-2%	15%	4.1	0.0%
N/C(=N\NC(=O)c1ccc(Cl)cc1)c1cnccn1	x	1.0	u	8%	-13%	-2.1	-1.3%
CCn1cc(C(=O)NCc2ccc3c(c2)OCO3)c2cc(OC)c(OC)cc2c1=O	-10%	-1.1	-2%	12%	-25%	-4.6	1.3%
CCNc1cccc2c1C(=O)N(C)C2=O	0.5%	u	19%	15%	-55%[inhibitor]	-0.9	-1.2%[38.3 µM]
CCOCCCNC(=O)c1cn(C)c(=O)c2cc(OC)c(OC)cc12	-0.9%	-2.4	9%	18%	-29%	-2.2	0.8%
COC(=O)N/C(C)=C1/NC(=O)c2ccccc2C(c2ccccc2)N1 (stereo unspecified)	-2.5%	0.9	2%	0%	1%	-3.1	1.9%
O=c1oc2cc(O)c(Cl)cc2c2ccccc12	-3.2%	7.8	4%	-2%	2.2µM*	-0.7	-0.8%
COc1ccccc1Cc1c(-c2ccc(Cl)cc2)nc2c(C)cc(Br)cn12	-0.7%	x	x	x	x	-7.3	0.9%
Cc1ccc(S(=O)(=O)N2CCCN(C(=O)CNC(=O)c3ccccc3)CC2)cc1	-1.5%	x	x	-2%	-1%	-2.5	0.6%
N#Cc1nc(Cc2ccccc2)oc1N1CCN(c2cccc(Cl)c2)CC1	1.3%	-3.3	9%	5%	24%	-3.6	4.4%[38.3 µM]

# An excerpt from above in order of heavy-atom count, highest first.
smiles	ClpP mod	Menin-MLL FL inh	Sfp inh	gsp antag	gsp agonist	D2 agonist	PINK1 expr mod
CC1CCCC(C)N1C(=O)COC(=O)c1cc(S(=O)(=O)N2CCOCC2)ccc1Cl (stereo unspecified)	-2.7%	x	x	-1%	-6%[15.4 µM]	-0.5	-0.8%
Cc1ccc(S(=O)(=O)N2CCCN(C(=O)CNC(=O)c3ccccc3)CC2)cc1	-1.5%	x	x	-2%	-1%	-2.5	0.6%
COc1cccc(CNS(=O)(=O)c2cc(-c3cc(C)no3)ccc2C(C)C)c1	-5.1%	1.5	4%	-12%	-33%[inhibitor]	5.0	1.0%
CCCCNC(=O)C1(C)CCCCN1Cc1ccccc1-c1ccccc1 (stereo unspecified)	0.1%	x	x	x	x	-2.2	u
COc1ccc(Nc2nc(-c3ccccc3O)nc3ccccc23)cc1	-10%	-3.1	9%	-18%	-12%[15.4 µM]	2.6	24%
c1ccc2c(c1)-c1nc3ccccc3cc1C2N1CCOCC1 (stereo unspecified)	-1.1%	x	x	-7%	-3%[15.4 µM]	3.9	-1.3%
CN1CCN(c2nc(-c3ccc(Cl)cc3)cc(=O)[nH]2)CC1	x	-5.2	13%	-1%	-1%	-3.4	-1.2%
c1ccc(C2C3=C(CCCC3)Nc3ncnn32)cc1 (stereo unspecified)	-7.7%	-0.6	-4%	-1%	4%	1.1	-3.7%[38.3 µM]
Clc1ccc(-c2nnc3cccc(Cl)n23)c(Cl)c1	0.1%	-2.8	10%	2%	u	-2.2	-3.9%

# Not a hit list; overall some 5.1% were active at least once.
